VDR inh = Inhibitors of the vitamin D receptor (VDR): qHTS; Vitamin D3 receptor (Homo sapiens), P11473; VDR-SRC2-3 peptide fluorescence polarization, 2 h; Potency, µM, without a hit: max response, negative = inhibition, actives largely listed as inhibitors; 0.93% of 400,000 active; active = well fitted inhibition curve with a large enough effect; inconclusive = small, poorly fitted or top-dose-only effect, or another doubt; inactive = no such curve, though single readings can be large or run the other way; note: series mostly up to about 120 µM
Target sequence (P11473 whole entry, looked up): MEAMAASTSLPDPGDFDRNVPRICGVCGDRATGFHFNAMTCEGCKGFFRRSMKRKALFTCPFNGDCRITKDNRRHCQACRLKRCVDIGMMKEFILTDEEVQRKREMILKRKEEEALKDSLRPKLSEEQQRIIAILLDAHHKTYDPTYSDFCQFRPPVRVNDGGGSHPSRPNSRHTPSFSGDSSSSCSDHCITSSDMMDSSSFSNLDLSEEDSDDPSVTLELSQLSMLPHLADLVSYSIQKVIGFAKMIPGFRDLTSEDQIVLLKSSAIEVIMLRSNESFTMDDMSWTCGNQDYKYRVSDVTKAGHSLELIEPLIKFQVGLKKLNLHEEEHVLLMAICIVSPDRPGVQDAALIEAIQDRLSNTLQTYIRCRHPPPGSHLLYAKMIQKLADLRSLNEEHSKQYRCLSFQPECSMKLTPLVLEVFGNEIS
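Inhibition of the VDR/SRC2-3 peptide interaction is quantified by fluorescence polarization. Compounds (23 nl, pintool) incubate with the reagents for 2 hours at ambient room temperature.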
Starred values were filed as active, the others as inactive; ? = inconclusive; & = joins results of further samples; [ ] = remark or other dose. % is set by controls: 0 for no effect and ±100 for the full control effect; potency is the fitted concentration of half-maximal effect.

SMILES,VDR inh
CCN(CC)c1ccc(N2C(=O)/C(=C\c3cccs3)SC2=S)cc1,4.6%
COc1ccc(Br)cc1CNC(=O)CN1C(=O)CSc2ccc(S(=O)(=O)N3CCOCC3)cc21,2.7%
c1ccc(CN2CCC3(CCCc4ccccc43)CC2)cc1,6.5%&-12.5%
CCn1c(NCc2cc(OC)ccc2OC)nc2ccccc21,-5.6%
Cc1ccc(C(=O)OCC(=O)Nc2ccc3c(c2)OCCO3)cc1C,-3.2%
CC1CCN(C(=O)CCc2nnc3ccc(NCCCN4CCCC4=O)nn23)CC1,-12.6%
COc1ccc(CN2C(=NC(=O)C3CCCO3)SC3CS(=O)(=O)CC32)cc1 (centres undefined),20.3%
Cc1cccc(OCC(O)CN2C(C)(C)CC(O)CC2(C)C)c1 (centres undefined),-7.9%

New compounds follow
SMILES,VDR inh
CCOC(=O)c1ccc2c(c1)nc(SCC(=O)N1CCCCC1)n2CC,2.8%
CCc1sc(C(=O)N2CCc3cc(OC)c(OC)cc3C2CC(=O)O)cc1C (centres undefined),1.6%
O=C(CN1CCN(S(=O)(=O)c2ccc(F)cc2)CC1)Nc1ccnn1C1CCCC1,-17.9%
Cc1ccc(-c2noc(CCCN3C(=O)c4ccccc4C3=O)n2)cc1,7.3%
CC1CN(C(=O)COC(=O)c2cnc(Cl)c(Cl)c2)CC(C)O1 (centres undefined),-4.3%
COc1ccc(NC(=S)Nc2ccccc2C(F)(F)F)cc1,-5.6%
COc1ccc(N2CCN(Cc3cc(=O)c(OCC(=O)Nc4ccccc4)co3)CC2)cc1,-13.3%
O=C(O)Cc1nn(Cc2ccc(Br)cc2F)c(=O)c2ccccc12,-0.2%

(more compounds)
SMILES,VDR inh
CCC(C)NC(=O)CN(c1ccc2c(c1)OCO2)S(=O)(=O)c1c(C)n[nH]c1C (centres undefined),-18.5%
Cc1ccc(/C=N/NC(=S)NC2CCS(=O)(=O)C2)cc1 (centres undefined),10.9%
CC1CCC2(CC1)NC(=O)N(CC(=O)N1CCN(C(=O)c3cccs3)CC1)C2=O (centres undefined),5.3%
O=C(CCN1C(=O)/C(=C/c2ccc(F)cc2)SC1=S)Nc1cc([N+](=O)[O-])ccc1O,35.1%[activator]
O=C(CN1C(=O)NC2(CCOc3ccccc32)C1=O)c1ccc(Cl)s1 (centres undefined),-6.1%
c1cnc2c(c1)ccc1cccnc12,-0.6%&-11.6%&-8.5%
Cc1ccc(S(=O)(=O)Oc2ccc(C)cc2/C=N/N=C2\NC(=O)C(C)S2)cc1 (centres undefined),4.3%
O=C(CS(=O)(=O)c1ccccc1)Nc1nnc(-c2cccs2)o1,-12.8%

Later entries.
SMILES,VDR inh
N=C(N)SCc1ccc(O)c([N+](=O)[O-])c1,3.8%
COc1ccc(OC)c2sc(NC(=O)c3ccc(S(=O)(=O)N(C)C)cc3)nc12,-18.0%
CCC12CN3CCN(CC(C3)/C1=N\NC(=O)c1ccc(Cl)cc1)C2,6.5%
CCCCS(=O)(=O)N1CCCC(C(=O)Oc2ccccc2OC)C1 (centres undefined),-7.3%
CCS(=O)(=O)N1CCN(S(=O)(=O)c2ccc(Cl)s2)CC1,2.8%
COc1ccccc1-n1cnnc1SCC(=O)Nc1nc(C)c(Cl)cc1Cl,5.5%
CCCCNC(=O)N(O)C1N(/N=C/c2ccccc2O)C(=S)SC1(C)C (centres undefined),0.1%
CCCCNC(=O)N1CCN(Cc2cccc(F)c2)CC1,-4.2%

Next section
SMILES,VDR inh
COc1ccc(C(=O)C2CCCN(Cc3cccn3-c3ccccn3)C2)c(OC)c1 (centres undefined),6.2%
COc1ccc(SCC(Cc2ccccc2)N2CCN(CC(C)C)CCC2=O)cc1 (centres undefined),?
O=C(O)c1cc(-c2ccco2)nn1-c1cccc(Cl)c1,-18.8%
Nc1c(C(=O)Nc2ccccc2)nnn1-c1ccc2c(c1)OCCO2,-15.3%
O=S(c1ccsc1)c1ccsc1,-18.5%
COc1ccc(C(C(=O)NC2CCCC2)N(CCCO)C(=O)c2snc(C(N)=O)c2N)cc1 (centres undefined),7.1%
COc1ccccc1/C=N\Nc1ccccc1[N+](=O)[O-],-4.0%
CCOC(=O)c1ccc2nc(NC(=O)C(C)C)sc2c1,-12.6%

(listing goes on)
SMILES,VDR inh
C=CCn1c(CCCNC(=O)c2ccccc2OC)nc2ccccc21,-3.0%
O=C(NCCCN1CCOCC1)C(=O)c1c[nH]c2ccccc12,-9.1%
O=C(C1CCC(CNc2c(N3CCCCC3)c(=O)c2=O)CC1)N1CCN(C2CCCCC2)CC1 (centres undefined),3.1%
CC(C)c1ccccc1NC(=O)C1CC(=O)N(C2CCCC2)C1 (centres undefined),1.7%
Cc1ccc(NC(=O)C(=O)NNC(=O)c2cccs2)cc1,-3.1%
CCOC(=O)C(CCCCOc1cccc(CC)c1)C(=O)OCC,-14.0%
O=C(CCCn1c2ccccc2c(=O)c2ccccc21)Nc1cccc(Cl)c1,1.1%
CCC(Sc1nnc2c(n1)[nH]c1ccccc12)C(=O)Nc1nnc(C(C)C)s1 (centres undefined),5.9%

As a short view, four of the compounds above:
SMILES,VDR inh
C=CCn1c(CCCNC(=O)c2ccccc2OC)nc2ccccc21,-3.0%
O=C(NCCCN1CCOCC1)C(=O)c1c[nH]c2ccccc12,-9.1%
O=C(C1CCC(CNc2c(N3CCCCC3)c(=O)c2=O)CC1)N1CCN(C2CCCCC2)CC1 (centres undefined),3.1%
CC(C)c1ccccc1NC(=O)C1CC(=O)N(C2CCCC2)C1 (centres undefined),1.7%

Additional results
SMILES,VDR inh
Cc1cc(C(=O)c2ccccc2)c(NC(=O)CCl)s1,-20.0%
O=C(CO/N=C/c1c(Cl)cccc1Cl)NNC(=O)c1cccc(Cl)c1,4.0%
COc1ccccc1C(=O)Nc1ccc(OCC(=O)N2C(C)CCCC2C)cc1 (centres undefined),-1.6%
COc1cccc(C2(O)CCN(C(=O)C3CC3)CC2)c1,0.5%
CN(C(=O)c1ccc2c(Cl)c3c(nc2c1)CCC3)c1ccccc1,1.8%
Cc1ccc2c(c1)c1c3n2CCN[C@H]3CCC1,3.2%&-12.7%
Clc1cccc(C(c2ccc3nc[nH]c3c2)n2ccnc2)c1 (centres undefined),?
CCCc1nc2ccc(NC(C)=O)cc2c(=O)n1Cc1ccc(Cl)cc1,16.6%

New compounds follow
SMILES,VDR inh
CN(C)c1ccc(NC(=O)Cn2ncn3c(cc4ccccc43)c2=O)cc1,7.3%
N/C(=N\N=C\c1cccs1)SC1CC(=O)N(c2ccc(Br)cc2)C1=O (centres undefined),-7.9%
CS(=O)(=O)c1ccc(N)c(SSc2cc(S(C)(=O)=O)ccc2N)c1,25.1µM*
Cc1cccc(NC(=O)CSc2nc3ccccc3nc2N2CCCC2)c1C,-14.0%
Cc1cc(C)nc(NNC2=CC(=[N+]3CCCCC3)CC(C)(C)C2)n1,12.6%
COc1ccc(N=Cc2[nH]c3ccccc3c2O)cc1,-14.8%
CCC(C)(C)n1nnnc1C(c1cccs1)N1CCCCC1 (centres undefined),?
COc1ccccc1C1CC(=O)Oc2ccc(C(C)(C)C)cc21 (centres undefined),?

Continued.
SMILES,VDR inh
COc1cccc(CN2CC(C(=O)NCc3cnn(C)c3)CCC2=O)c1 (centres undefined),5.9%
Cc1cccc(NC(=S)NCc2ccc(F)cc2)c1,14.0%
CC(=O)c1ccc(NC(=O)c2ccc(CSc3ccccc3)o2)cc1,-7.3%
CC1CCN(C(C(=O)Nc2ccc3c(c2)OCO3)c2ccccc2)CC1 (centres undefined),-2.3%
CCn1c(CSCc2ccc(C)cc2)nnc1SCC(=O)NCc1ccccc1,3.2%
COc1ccc(C(=O)OCC(=O)c2c[nH]c3ccccc23)c(OC)c1,-11.5%
COc1ccccc1/C=C(/NC(=O)c1ccccc1)C(=O)NCCCn1ccnc1,3.8%
Cc1cc(=O)n(CC(=O)NC2CC2)c2c1c(C)nn2-c1ccccc1,-16.5%

The listing continues.
SMILES,VDR inh
Cc1oc2ccc(NS(=O)(=O)c3ccc(C(C)(C)C)cc3)cc2c1C(=O)Nc1ccccc1,-13.5%
COCc1cc(N2CCCC2)nc(-c2ccccc2)n1,9.0%
O=C(NCCCn1ccnc1)C(Cc1ccc([N+](=O)[O-])cc1)N1C(=O)c2ccccc2C1=O (centres undefined),16.2%
Cc1nc(C)c(C(=O)OCC(=O)NCc2ccccc2Cl)s1,-1.3%
Cc1ccc(C(=O)NCC(=O)OCC(=O)c2ccc(C)c([N+](=O)[O-])c2)cc1,10.2%
O=C(Nc1nc2ccccc2s1)c1ccc(F)cc1,?
CN(C(=O)C1CCCN(c2ncnc3c2nc2n3CCCCC2)C1)c1ccccc1F (centres undefined),5.7%
C=CCNC(=O)COc1ccc(Oc2ccccc2)cc1,-16.9%

Remaining list, next part
Molecule,VDR inh
Oc1ccc(Cl)cc1CNCc1ccc(Cl)nc1,-2.4%
O[C@@H]1CN(Cc2ccc(-n3cccn3)cc2)CC[C@H]1N1CCN(c2ccccc2F)CC1,-5.8%
CC(C)(C)n1nc2c(c1NC(=O)CCCc1ccccc1)CS(=O)C2 (centres undefined),3.8%
Cc1ccc2cccc(NC(=S)NC(=O)c3ccnn3C)c2n1,3.0%
Cc1ccc(N2C(=O)c3ccc(C(=O)N4CCN(Cc5ccccc5)CC4)cc3C2=O)cc1,-19.7%
CCN(CC(=O)NCc1cccs1)C(=O)CN(C)S(=O)(=O)c1ccc(C)cc1,-1.8%
COc1ccc(CNC(=O)CCCn2nc(C)n3ccnc3c2=O)cc1,-17.2%
CCN1CCN(C(=O)c2cc(COc3ccc(F)cc3F)on2)[C@@H](C)C1=O,8.9%
CC12C(=O)N(c3ccccn3)C(=O)C1C1C=CC2C1 (centres undefined),?
COc1ccc(CCNC(=O)c2cc(S(=O)(=O)N3CCCCC3)c[nH]2)cc1OC,-6.8%

Following part:
Molecule,VDR inh
Cc1ccc(C)c(NC(=O)CSc2nc(-c3ccccc3Cl)nc3c2Cc2c(CO)cnc(C)c2O3)c1,-2.3%
CCc1c(O)cc2n(c1=O)-c1ccccc1C2(C)C,27.0%
C#CC[N+]1(CC#Cc2ccc(C)cc2)CCCCC1,11.7%
Cn1c(=O)n(C)c2cc(S(=O)(=O)Nc3ccccc3C(=O)O)ccc21,-2.0%&-8.7%
CCOC(=O)N1CCN(S(=O)(=O)c2ccc3[nH]c(=O)sc3c2)CC1,14.9%
COc1cc(O)ccc1C(C)=O,5.1%
CCN(CC)C(=O)C1=C(C)NC(=O)NC1c1c(F)cccc1Cl (centres undefined),16.9%
O=C(CNC(=O)c1cccc(Br)c1)N/N=C/c1cccnc1,4.1%
CC(C(=O)Nc1cc(C(F)(F)F)ccc1N1CCOCC1)N1C(=O)C2CCCCC2C1=O (centres undefined),-10.0%
COC(=O)c1ccc(CSc2nc3c(cnn3-c3ccc(C)cc3)c(=O)[nH]2)o1,4.2%

Later entries.
Molecule,VDR inh
CCN(Cc1ccc(C#CCCO)cc1)CC1CCCN(CCc2cccc(OC)c2)C1 (centres undefined),3.8%
COc1ccc(/C=C/C(=O)c2ccoc2)cc1,-19.3%
CCOc1ccccc1NC(=O)Cn1c(=O)n(Cc2ccco2)c(=O)c2sc3ccccc3c21,5.0%
CC1CCN(C2CCN(S(=O)(=O)c3ccc(F)cc3)CC2)CC1,2.4%
COc1cc(OC)cc(N(C(=O)c2ccco2)C(C(=O)NC2CCCC2)c2ccc(N3CCOCC3)cc2)c1 (centres undefined),-5.9%
CC(=O)c1cccc(NC(=O)C(C)OC(=O)c2ccc3ncsc3c2)c1 (centres undefined),3.8%
O=C(O)CC(C(=O)O)N1C(=O)/C(=C/C=C/c2ccco2)SC1=S (centres undefined),66.7%[activator]
Cn1nccc1C(=O)Oc1ccc(/C=N/NC(=O)c2ccccc2O)cc1,5.4%
COc1ccccc1CNC(=O)CN1C(=O)CCc2cc(S(=O)(=O)N3CCOCC3)ccc21,7.8%
FC(F)(F)c1ccccc1-c1nccc(-n2ccnc2)n1,44.7µM*

7 of the compounds above, with values ahead of the structure:
VDR inh	SMILES
5.0%	CCOc1ccccc1NC(=O)Cn1c(=O)n(Cc2ccco2)c(=O)c2sc3ccccc3c21
2.4%	CC1CCN(C2CCN(S(=O)(=O)c3ccc(F)cc3)CC2)CC1
-5.9%	COc1cc(OC)cc(N(C(=O)c2ccco2)C(C(=O)NC2CCCC2)c2ccc(N3CCOCC3)cc2)c1 (centres undefined)
3.8%	CC(=O)c1cccc(NC(=O)C(C)OC(=O)c2ccc3ncsc3c2)c1 (centres undefined)
66.7%[activator]	O=C(O)CC(C(=O)O)N1C(=O)/C(=C/C=C/c2ccco2)SC1=S (centres undefined)
5.4%	Cn1nccc1C(=O)Oc1ccc(/C=N/NC(=O)c2ccccc2O)cc1
7.8%	COc1ccccc1CNC(=O)CN1C(=O)CCc2cc(S(=O)(=O)N3CCOCC3)ccc21

More records
Molecule,VDR inh
N#CCCN(C(=O)COC(=O)COc1ccccc1Cc1ccccc1)c1ccccc1,6.6%
COc1cc2c(cc1O)CC[n+]1cc3c(OC)c(OC)ccc3cc1-2,-14.0%
O=C(CNS(=O)(=O)c1ccc([N+](=O)[O-])cc1)N/N=C/c1ccc(O)cc1O,-16.5%
COc1ccc(C(=O)CN2C(=O)NC3(CCCCCC3)C2=O)cc1,-15.8%
CCc1ccc(NC(=O)c2cnn3ccccc23)cc1,-11.8%
CCCNC(=O)c1ccc(N2CCC3(CC2)CC(c2ccccc2)=NO3)c(NC(=O)c2ccc(Br)cc2)c1,16.4%
COc1ccc(/C=N/N2CCOCC2)cc1Cn1nc(C)c([N+](=O)[O-])c1C,-11.5%
COc1ccc2c(c1)cc1n2CCN=C1NCCO,6.4%
CC(C)c1nc(SCC(=O)N2CCCC2)c2c(=O)n(C)c(=O)n(C)c2n1,-5.9%
CCCCCc1nc2c(C#N)c(-c3ccc(Cl)cc3)ccn2n1,3.6%

(continued)
Molecule,VDR inh
C1CCCCCC2(CCCCC1)OCC(CN1CCOCC1)O2 (centres undefined),-13.2%
Cc1ccc(SCCC(=O)Nc2ccccc2C(=O)NC(C)C)cc1,-6.7%
COc1ccc(CNC(=O)/C=C/C(=O)O)cc1OC,-5.9%
O=C(COC(=O)COc1cccc(C(F)(F)F)c1)NC1CCS(=O)(=O)C1 (centres undefined),4.9%

Compound activity from PubChem.

Some of the compounds tested. The share of hits here may be higher or lower than overall.
